StopGo RLuc: Primary qHTS Assay for Foot and Mouth Disease Virus Antivirals against NCGC Sytravon and CBC Compound Libraries: Renilla Luciferase Signal; HEK cells with a luciferase reporter of 2A StopGo recoding; Potency, µM (top dose mostly 57.5 µM), for inactives: at the highest dose signal change, negative = less light; hit rate 0.32% among 120,000; AID 1745857, 2022; active means well fitted falling curve with a large enough effect; inconclusive means small, poorly fitted or top-dose-only effect; inactive means no such curve, though single readings can be large or run the other way; note: nearly all actives have a fitted effect of over 55% in size; overnight with compound
StopGo FLuc: Primary qHTS Assay for Foot and Mouth Disease Virus Antivirals against NCGC Sytravon and CBC Compound Libraries: Firefly Luciferase Signal | HEK cells with a luciferase reporter of 2A StopGo recoding | Potency, µM (top dose mostly 57.5 µM), inactives show at the top dose signal change, negative = less light | hit rate 0.23% among 120,000 | AID 1745856, 2022; active = well fitted falling curve with a large enough effect; inconclusive = small, poorly fitted or top-dose-only effect; inactive = no such curve, though single readings can be large or run the other way; note: nearly all actives have a fitted effect of over 60% in size; overnight with compound
* marks the source's active call; other numbers are inactive results; [ ] = another dose, or the depositor's remark. % is set by controls: 0 for no effect and ±100 for the full control effect; potency is the fitted concentration of half-maximal effect. Not all compounds are listed (hit frequency here may not be typical).

For COc1ccc(N2CC(NC(=O)COc3ccccc3C)CC2=O)cc1OC (stereo not given) the results were StopGo RLuc 10.6% and StopGo FLuc -2.8%.
For CCOCCc1nn2c(=O)cc(COC(=O)CNC(=O)c3ccc(C(C)(C)C)cc3)nc2s1 the results were StopGo RLuc -20.1% and StopGo FLuc -13.1%.
For O=C(NCc1ccncc1)c1cc(-c2ccc(Cl)cc2)nc2ccccc12 the results were StopGo RLuc 15.7% and StopGo FLuc 0.0%.
`O=C(CCCN1CCC(O)(c2ccc(Br)cc2)CC1)c1ccc(F)cc1` gave StopGo RLuc -10.6% and StopGo FLuc -19.2%.
For CCc1ccc2oc(C(=O)Nc3ccc(C)cc3)cc(=O)c2c1 the results were StopGo RLuc 0.2% and StopGo FLuc 6.1%.
For COc1ccc(C)cc1-n1nnc(-c2nc(-c3ccccc3C)no2)c1N the results were StopGo RLuc 6.8% and StopGo FLuc 21.2%.
Screening O=C(CCc1nc(-c2ccccc2)c(-c2ccccc2)o1)N1CCN(C(=O)C2CC2)CC1 returned StopGo RLuc 3.6% and StopGo FLuc -1.8%.
Screening Cc1ccccc1-n1nnnc1SCC(=O)Nc1ccc2nccnc2c1 returned StopGo RLuc -7.6% and StopGo FLuc 7.3%.
`COc1ccccc1Cn1c(C)c2c(=O)n(-c3ccc(F)cc3)[nH]c2cc1=O` gave StopGo RLuc -5.2% and StopGo FLuc -8.0%.
For Cc1cc2oc(=O)cc(CN3CCN(C(=O)C4COc5ccccc5O4)CC3)c2cc1C(C)C (stereo not given) the results were StopGo RLuc -18.5% and StopGo FLuc -17.7%.
`Cc1ccc(-c2nc(SCc3ncc(-c4ccccc4)o3)n[nH]2)cc1` gave StopGo RLuc 15.0% and StopGo FLuc 2.8%.
`COC(=O)C(C)Oc1ccc2c(C)c(Cc3ccccc3)c(=O)oc2c1` (stereo not given) gave StopGo RLuc 7.1% and StopGo FLuc 24.8%.
Screening CCOc1ccc(/C=C2/NC(=O)NC2=O)cc1Br returned StopGo RLuc 9.1% and StopGo FLuc 55.5%[activator].
For O=C(/C=C/c1c(Cl)cccc1Cl)NC(C1CC1)C1CC1 the results were StopGo RLuc 16.3% and StopGo FLuc 20.7%.
`CCOC(=O)c1cnc2c(C)c(Cl)ccc2c1NCCc1ccccc1` gave StopGo RLuc -13.6% and StopGo FLuc inconclusive.
COc1ccccc1CNC(=O)C1CCCN(C(=O)c2cnn(-c3ccc(F)cc3)c2-n2cccc2)C1 (stereo not given) was read as StopGo RLuc 11.5% and StopGo FLuc 8.2%.
CC(=O)c1ccc(N2CCN(c3ncnc4c3cnn4C)CC2)cc1 was read as StopGo RLuc 0.6% and StopGo FLuc 16.8%.
Cc1[nH]c2ccccc2c1CC(=O)NC1CCS(=O)(=O)C1 (stereo not given) was read as StopGo RLuc -19.8% and StopGo FLuc -6.7%.
Cc1ccc(CNC(=O)CSC2=Nc3ccccc3N=C(c3ccc(F)cc3)C2)cc1 was read as StopGo RLuc -13.7% and StopGo FLuc -11.5%.
For Cc1ccc(-c2c(C)n3c4c(=O)n(C)c(=O)n(C)c4nc3n2CCO)cc1 the results were StopGo RLuc inconclusive and StopGo FLuc inconclusive.
`O=C(CCc1nc2ccccc2o1)NC1CCCCC1` gave StopGo RLuc -13.6% and StopGo FLuc -8.0%.
`Cc1nc2cc(NC(=O)c3ccc(CNC(N)=O)cc3)ccc2o1` gave StopGo RLuc -3.4% and StopGo FLuc 89.8%[activator].
`N#C/C(=C\c1ccc(-c2cc(Cl)ccc2Cl)o1)C(=O)Nc1ccccc1C(=O)O` gave StopGo RLuc 94.4%[activator] and StopGo FLuc 37.7%[activator].
O=C(CSc1ncc(-c2ccc(F)cc2)o1)Nc1cccc(Cl)c1 was read as StopGo RLuc -1.5% and StopGo FLuc 0.0%.
`Cn1cc(S(=O)(=O)N2CCc3ccccc32)cc1C(=O)Nc1ccccc1F` gave StopGo RLuc inconclusive and StopGo FLuc inconclusive.
For Cc1ccc(NC(=O)C(=O)NCCN2CCN(S(=O)(=O)c3ccc(F)cc3)CC2)cc1C the results were StopGo RLuc -5.3% and StopGo FLuc -4.0%.
CN(C)CCCNC(=O)C1CCCN(c2ncnc3nc[nH]c23)C1 (stereo not given) was read as StopGo RLuc -10.7% and StopGo FLuc -8.5%.
COc1ccc(CNS(=O)(=O)c2ccc(-c3ccc(=O)[nH]n3)s2)cc1 was read as StopGo RLuc 18.0% and StopGo FLuc 10.9%.
`Cc1ccc(/C=N/NC(=O)c2csc3ccccc23)s1` gave StopGo RLuc 3.3%[1.06 µM] and StopGo FLuc 82.2%[activator].
Screening CC(=O)c1ccc(NC(=O)CSc2ncnc3ccccc23)cc1 returned StopGo RLuc -13.5% and StopGo FLuc 34.4%[activator].
`O=S1(=O)C=C(Sc2nnc(-c3cccnc3)o2)c2ccccc21` gave StopGo RLuc inconclusive and StopGo FLuc inconclusive.
Cc1ccoc1C(=O)OCCOc1ccc(C#N)cc1 was read as StopGo RLuc 3.8% and StopGo FLuc 0.0%.
For CC(C)(C)c1ccc(C(=O)N2CCC(c3noc(-c4ccc(S(=O)(=O)N5CCCC5)cc4)n3)CC2)cc1 the results were StopGo RLuc -2.4% and StopGo FLuc -3.2%.
Screening Cc1cc(=O)oc2cc(OC(=O)COc3ccccc3)ccc12 returned StopGo RLuc 5.5% and StopGo FLuc 57.1%[activator].
For CCOc1ccc(NC(=O)c2ccccc2C)c2cccnc12 the results were StopGo RLuc -1.7% and StopGo FLuc 44.6%[activator].
Screening COC(=O)C1CCN(C(c2ccccc2)c2sc3nc(-c4ccco4)nn3c2O)CC1 (stereo not given) returned StopGo RLuc 94.9%[activator] and StopGo FLuc 35.8%[activator].
Screening CCOc1ccc(N(CC)S(=O)(=O)N2CCCC(C(=O)Nc3cc(Cl)ccc3C)C2)cc1 (stereo not given) returned StopGo RLuc -8.6% and StopGo FLuc -15.8%.
COc1ccccc1CNc1ccc(-c2nc(-c3ccncc3)no2)cc1[N+](=O)[O-] was read as StopGo RLuc -4.2% and StopGo FLuc 50.0%[activator].
`COc1ccc(N(CC(=O)Nc2cccc(Cl)c2C)S(=O)(=O)c2c(C)nn(C)c2C)cc1` gave StopGo RLuc 8.3% and StopGo FLuc -19.1%.
Screening CC(C(=O)c1ccccc1)N(C)C (stereo not given) returned StopGo RLuc -9.9% and StopGo FLuc -14.7%.
Cc1ccnc(NS(=O)(=O)c2ccc(NC(=O)C(C)(C)Oc3ccc(Cl)cc3)cc2)n1 was read as StopGo RLuc -2.7% and StopGo FLuc 3.2%.
For COc1ccc(-c2cc(C(=O)Nc3c(C(=O)c4ccc(Cl)cc4)oc4ccccc34)no2)cc1 the results were StopGo RLuc -6.4% and StopGo FLuc -8.0%.
`CC(CCc1ccccc1)NC(=O)CSc1n[nH]c(-c2ccccc2)n1` (stereo not given) gave StopGo RLuc 30.5%[activator] and StopGo FLuc 0.0%.
Cc1cc(NC(=O)CSc2nc3c(c(=O)n(C)c(=O)n3C)n2Cc2ccccc2C)ccc1F was read as StopGo RLuc -6.1% and StopGo FLuc -4.9%.
For CCOC(=O)N1CCN(Cc2cc(=O)oc3c(C)c(C)cc(C)c23)CC1 the results were StopGo RLuc 6.6% and StopGo FLuc 11.0%.
`COc1ccccc1C(C)NC(=O)c1ccc(Cl)cc1` (stereo not given) gave StopGo RLuc 5.7% and StopGo FLuc 6.8%.
For COc1ccc(NC(=O)COc2c(C)cccc2C)c2cccnc12 the results were StopGo RLuc 0.0% and StopGo FLuc 30.0%[activator].
Cc1[nH]c2ccccc2c1C(=O)C(C)Sc1nnnn1C1CC1 (stereo not given) was read as StopGo RLuc 11.7% and StopGo FLuc 2.0%.
For NCCCCCCCN1CCCC1 the results were StopGo RLuc -12.7% and StopGo FLuc -7.0%.
COc1ccc(Cl)cc1NC(=O)CSc1nc(=O)[nH]c2c1CCC2 was read as StopGo RLuc -3.1% and StopGo FLuc -17.0%.
`CC(=O)N/N=C/c1ccc(C)c(C)c1C` gave StopGo RLuc 6.9% and StopGo FLuc 0.0%.
`Cc1ccc(NC(=O)c2c(C)oc3ccc(O)c(CN4CCCCC4)c23)cc1` gave StopGo RLuc -16.7% and StopGo FLuc inconclusive.
For COc1cc2c(-c3ccccc3Cl)nc3c(c(C)nn3-c3ccccc3)c2cc1OC the results were StopGo RLuc 0.1% and StopGo FLuc -8.5%.
`CCOc1ccc2cc(-c3ccc(OC)cc3)c(=O)oc2c1` gave StopGo RLuc 8.6% and StopGo FLuc 186.2%[activator].
For CC(=O)c1ccccc1NS(=O)(=O)c1cc2c(cc1C)NC(=O)CO2 the results were StopGo RLuc -8.1% and StopGo FLuc -15.3%.
Screening CN(C)c1ccc(C(CNC(=O)c2ccccc2F)N2CCc3ccccc32)cc1 (stereo not given) returned StopGo RLuc -4.2% and StopGo FLuc 93.1%[activator].
`CCS(=O)(=O)N1CCc2cc(C(=O)N3CCN(c4cccc(C(F)(F)F)c4)CC3)ccc21` gave StopGo RLuc inconclusive and StopGo FLuc inconclusive.
O=C1CC(c2ccccc2O)Cc2nc(N3CCN(c4ccccc4)CC3)ncc21 (stereo not given) was read as StopGo RLuc inconclusive and StopGo FLuc inconclusive.
Screening COc1cccc(C(=O)N2CCC(C(=O)Nc3cccc(Cl)c3)CC2)c1 returned StopGo RLuc 15.3% and StopGo FLuc -12.9%.
Cc1cccc(COc2ccccc2/C=C(\C#N)c2nc3ccccc3[nH]2)c1 was read as StopGo RLuc inconclusive and StopGo FLuc inconclusive.

Sorted by molar mass (largest number first): part of the list above.
`Cc1ccc(NC(=O)c2c(C)oc3ccc(O)c(CN4CCCCC4)c23)cc1` gave StopGo RLuc -16.7% and StopGo FLuc inconclusive.
COc1ccc(Cl)cc1NC(=O)CSc1nc(=O)[nH]c2c1CCC2 was read as StopGo RLuc -3.1% and StopGo FLuc -17.0%.
Cc1[nH]c2ccccc2c1C(=O)C(C)Sc1nnnn1C1CC1 (stereo not given) was read as StopGo RLuc 11.7% and StopGo FLuc 2.0%.

(list continues)
CCOC(=O)c1cccc(NC(=O)Cn2nc3c(cc2=O)CCCC3)c1 was read as StopGo RLuc -14.9% and StopGo FLuc -14.1%.
Cc1ccc(OCC(=O)Nc2ccc3nc(SCC(=O)N4CCCC4)sc3c2)cc1 was read as StopGo RLuc -14.0% and StopGo FLuc -19.7%.
Cc1ccc(-c2cc(C(=O)O)c3cc(C)cc(C)c3n2)cc1 was read as StopGo RLuc 42.2%[activator] and StopGo FLuc 141.1%[activator].
Screening CN1CCCC1CNC(=O)Cc1cn(C)c2ccccc12 (stereo not given) returned StopGo RLuc -13.5% and StopGo FLuc -10.5%.
For CCOC(=O)c1c(-c2ccccc2)csc1NC(=O)c1nc(S(=O)(=O)CC)ncc1Cl the results were StopGo RLuc -29.2% and StopGo FLuc -20.3%.
For COc1cccc(N2CCN(C(=O)c3ccc(CS(=O)c4cccc(Cl)c4)o3)CC2)c1 (stereo not given) the results were StopGo RLuc 3.8% and StopGo FLuc -16.4%.
COC(=O)c1sc(N2C(=O)C(=O)/C(=C(/O)c3ccc(C)c(F)c3)C2c2ccccc2F)nc1C (stereo not given) was read as StopGo RLuc 66.4%[activator] and StopGo FLuc 232.3%[activator].
For O=C(O)c1ccc(-c2ccccc2)o1 the results were StopGo RLuc -8.9% and StopGo FLuc 14.8%.
`CCN1CCN(C(C(=O)O)c2cn(CCC(=O)O)c3cc(Br)ccc23)CC1` (stereo not given) gave StopGo RLuc 0.1% and StopGo FLuc 1.9%.
`COc1cc2c(cc1OC)CN(Cc1cc(=O)c(OCc3ccccc3F)co1)CC2` gave StopGo RLuc -13.1% and StopGo FLuc -1.3%.
`CCc1ccc(-n2nc(C)c3c2NC(=O)CSC3c2ccc(C(=O)OC)cc2)cc1` (stereo not given) gave StopGo RLuc inconclusive and StopGo FLuc inconclusive.
Screening CCc1ccccc1NC(=O)CSc1ncc2c(n1)-c1cc(Cl)ccc1N(Cc1ccccc1)S2(=O)=O returned StopGo RLuc -17.3% and StopGo FLuc -11.4%.
`COc1ccc2[nH]c3c(c2c1)CCN(C(=O)CCC1CCCC1)C3c1ccc(F)cc1` (stereo not given) gave StopGo RLuc inconclusive and StopGo FLuc inconclusive.
Screening CCN1CCc2nc3sc(C(=O)Nc4cccc(Cl)c4C)c(N)c3cc2C1 returned StopGo RLuc 7.08µM* and StopGo FLuc 12.6µM*.
`COc1ccccc1N1CCN(C(=O)Cc2c(C(=O)O)c(C)cn2C)CC1` gave StopGo RLuc -1.5% and StopGo FLuc -5.2%.

Reprinted at random: two compounds from above, in no set order.
`CCc1ccc(-n2nc(C)c3c2NC(=O)CSC3c2ccc(C(=O)OC)cc2)cc1` (stereo not given) gave StopGo RLuc inconclusive and StopGo FLuc inconclusive.
Cc1ccc(-c2cc(C(=O)O)c3cc(C)cc(C)c3n2)cc1 was read as StopGo RLuc 42.2%[activator] and StopGo FLuc 141.1%[activator].

Remaining list, next part.
Screening Cc1ccccc1NC(=O)c1cc2sccc2n1Cc1ccc(F)cc1 returned StopGo RLuc -6.4% and StopGo FLuc 11.7%.
O=S1(=O)c2c(NCc3ccco3)cccc2Oc2ccccc2CN1Cc1cn(Cc2cccc(C(F)(F)F)c2)nn1 was read as StopGo RLuc 41.2%[activator] and StopGo FLuc -4.8%.
CC(C)CS(=O)(=O)c1oc(-c2ccc(F)cc2)nc1S(=O)(=O)c1ccccc1 was read as StopGo RLuc -8.5% and StopGo FLuc inconclusive.
For CC(C)(C)c1ccc(CCC(=O)Nc2cccnc2)cc1 the results were StopGo RLuc 26.3% and StopGo FLuc 0.0%.
`C/C=C/C=C/C(=O)NC(C)c1ccc(F)cc1F` (stereo not given) gave StopGo RLuc -11.2% and StopGo FLuc -11.1%.

Bioassay records deposited in PubChem by National Center for Advancing Translational Sciences (NCATS).
